Assay outcomes as filed in PubChem BioAssay.
TsaE inh = qHTS Assay for Inhibitors of YjeE | purified YjeE, fluorescence polarisation of a bound ADP probe | 0.05% of 71,000 active | AID 605, 2007 | Potency, µM; active = well fitted falling curve; inconclusive = weaker or top-dose-only fall, or a rising curve; inactive = flat or poorly fitted curve;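 note: top concentration of the series not given in the record; excess ADP was the control for the full effect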
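Fluorescence polarization of a BODIPY Texas Red–ADP probe (2 uM) bound to purified YjeE (10 uM) was read after 15 min room-temperature incubation with compounds. Loss of polarization marks inhibitors; ADP serves as titrated control.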
Bst PK mod = Pyruvate Kinase; partly purified Bacillus stearothermophilus pyruvate kinase, luminescence ATP production; ribose 5-phosphate activator present at AC10; Potency, µM; 1.2% of 51,000 active; AID 361, 2006; in the data active means potency below about 11 µM; inconclusive means mostly about 12 µM to 25 µM; inactive means weaker than that;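 the screen sought inhibitors and activators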;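 note: potency is the fitted concentration of half-maximal effect; scaled between full activation by ribose 5 phosphate and full inhibition by luteolin; about four in five hits inhibit and the cells do not say which; series up to 57 µM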
* hit, by the source's call; i = inactive; ? = inconclusive; · = no result given; & = joins results of further samples. This is a subset (hit frequency here may not be typical).

SMILES	TsaE inh	Bst PK mod
Cc1ccc(NC(=O)CSCC(N)=O)cc1C	i	>57
O=C(O)CSc1cc(-c2ccccc2)nc2ccccc12	i	·
COc1cccc(CNC2CCCC2)c1	i	·
Cc1cc(C(=O)Nc2ccccc2C(F)(F)F)no1	i	>57
O=C(O)CCCC(=O)Nc1ccccc1C(=O)O	i	>57
O=c1[nH]c2cc3c(cc2cc1C(c1nnnn1CC1CCCO1)N1CCCCCC1)OCO3 (centres undefined)	i	>57
CCSc1ccccc1C(=O)NCc1ccc(S(N)(=O)=O)cc1	i	>57
CCCCN1c2cc(C)c(O)cc2C(C(=O)OCC)C1C (centres undefined)	i	>57
C=CCn1c(SCC(=O)Nc2ccc3c(c2)OCCO3)nnc1-c1ccccn1	i	>57
COc1ccc(C2=NCC(CSc3nnnn3C)S2)cc1 (centres undefined)	i	>57
O=C(CCc1nc(-c2ccccc2F)no1)Nc1ccc(Oc2ccccc2)cc1	i	>57
Cc1ccccc1-c1ccc2ncnc(N(C)C)c2c1	i	·
CC(CCc1ccccc1)NC(=O)CN1CCOc2ccccc21 (centres undefined)	i	·
COc1ccccc1NC(=O)C1CCCCN1S(=O)(=O)c1ccc(F)cc1 (centres undefined)	i	>57
CCOC(=O)C1=C(C)Nc2nc(SCc3cccnc3)nn2C1c1ccc(OC)cc1 (centres undefined)	i	·
Cc1ccc(-n2c(SCC(=O)NCc3cccs3)nnc2-c2ccoc2C)cc1	i	>57
COC(=O)Cn1cnc2c(nnn2Cc2ccc(Cl)cc2)c1=O	i	>57
O=C(CN(Cc1ccco1)S(=O)(=O)c1cccs1)Nc1ccccc1C(F)(F)F	i	>57
COCCNC(=O)CN(c1cccc(OC)c1)S(=O)(=O)c1ccc(C)cc1	i	·
Cc1c(C(=O)Nc2ccc(F)cc2)oc2ccc(S(=O)(=O)N3CCC4(CC3)OCCO4)cc12	i	>57
CCN(CC)S(=O)(=O)c1ccc2c(c1)c(=O)c(C(=O)NCCCN(C)c1ccccc1)cn2C	i	>57
CCCCOC(=O)c1ccc(NC(=O)c2ocnc2C)cc1	i	·
COc1ccccc1CCNC(=O)c1cnn2c(C(F)F)cc(C)nc12	i	·
Cc1nc(=O)c(-c2ccccc2)c(C)n1-c1ccc(C(=O)O)cc1	?	·
COc1cccc(C(=O)N(c2ccc(OC)cc2OC)C2C=CS(=O)(=O)C2)c1 (centres undefined)	i	>57

A draw from above in order of heavy-atom count, high to low.
SMILES	TsaE inh	Bst PK mod
CCOC(=O)C1=C(C)Nc2nc(SCc3cccnc3)nn2C1c1ccc(OC)cc1 (centres undefined)	i	·
Cc1ccc(-n2c(SCC(=O)NCc3cccs3)nnc2-c2ccoc2C)cc1	i	>57
COc1ccccc1CCNC(=O)c1cnn2c(C(F)F)cc(C)nc12	i	·
O=C(O)CSc1cc(-c2ccccc2)nc2ccccc12	i	·
O=C(O)CCCC(=O)Nc1ccccc1C(=O)O	i	>57
COc1cccc(CNC2CCCC2)c1	i	·

Profiles, quoted from the list. Values in the order: TsaE inh	Bst PK mod
Results for Cc1c(C(=O)Nc2ccc(F)cc2)oc2ccc(S(=O)(=O)N3CCC4(CC3)OCCO4)cc12 = i	>57
Results for COc1cccc(C(=O)N(c2ccc(OC)cc2OC)C2C=CS(=O)(=O)C2)c1 (centres undefined) = i	>57

Following part
SMILES	TsaE inh	Bst PK mod
COC(=O)c1ccccc1NC(=O)c1ccccc1NS(C)(=O)=O	i	>57
Cc1ccc(N2CC(C(=O)N3CCc4ccccc4C3)CC2=O)cc1 (centres undefined)	i	>57
CCOC(=O)C1CCN(C(c2cccs2)c2sc3nc(C)nn3c2O)CC1 (centres undefined)	i	·
Cc1nnc(SCc2cccs2)[nH]c1=O	i	>57
Cc1c(C#N)c2ncn(CCCN(C)C)c(=O)c2n1-c1ccccc1	i	>57
CCN1C(=O)c2cccc3c(S(=O)(=O)Nc4ncccc4C)ccc1c23	i	>57
COc1ccc(C(=O)Nc2ccc(Cl)c(Cl)c2)c(OC)n1	i	>57
CCc1cccc(CC)c1N(COC)C(=O)Cn1c(C(C)O)nc2ccccc21 (centres undefined)	i	>57
O=C(NCCCN1CCCC1=O)c1cccnc1	i	>57
O=C(O)CSc1nnc(Cc2ccccc2)n1Cc1ccccc1	i	>57
Cn1c(=O)cc(OCCCC(=O)Nc2cccnc2)c2ccccc21	i	>57
Cc1ccc(NC(=O)c2cc(S(=O)(=O)N3CCC4(CC3)OCCO4)ccc2F)cc1	i	>57
COCCCNC(=O)c1ccccc1SC	i	>57
Cc1cc(N2CCC(C(=O)Nc3ccc(F)cc3)CC2)nc(-c2ccccc2)n1	i	>57
CC1Cc2ccccc2N1S(=O)(=O)c1cccc(C(=O)c2nccn2C)c1 (centres undefined)	i	>57
CC1CCCCN1c1nc(-c2ccncc2)nc2ccccc12 (centres undefined)	i	>11.4
Cn1c(COc2ccccc2)nnc1SCC(=O)Nc1ccc(N2CCOCC2)c(Cl)c1	i	>57
COc1cc2c(cc1OC)CN(Cc1cccs1)CC2	i	·
CCCC1c2c(ccc3ccccc23)Oc2ccc3ccccc3c21	i	·
CCOCC(=O)Nc1c(C(=O)Nc2ccc(OC)cc2OC)oc2ccccc12	i	>57
Nc1cc(S(=O)(=O)O)cc2ccc(S(=O)(=O)O)cc12	i	·
CC1(C)CC(NC(=O)CC2CCCCC2)CC(C)(C)N1	i	>57
Cc1cc(N2CCN(C)CC2)nc2ccc(NC(=O)c3ccc(Br)o3)cc12	i	·
COc1cc(OC)cc(-c2nnc(Nc3nc4c(F)cccc4s3)o2)c1	i	>57
CCOC(=O)N1CCC(NC(=O)CCC(=O)N2CC(C)Oc3ccc(Cl)cc32)CC1 (centres undefined)	i	>57

Look-ups from the list:
Reading of `Cc1ccc(NC(=O)c2cc(S(=O)(=O)N3CCC4(CC3)OCCO4)ccc2F)cc1` in Bst PK mod: >57
Reading of `Cn1c(COc2ccccc2)nnc1SCC(=O)Nc1ccc(N2CCOCC2)c(Cl)c1` in Bst PK mod: >57

Next part
SMILES	TsaE inh	Bst PK mod
COc1ccc(OC)c(C(=O)c2coc3ccc(OC)cc23)c1	i	·
CCCN1C2CCCC1CC(NC(=O)NC1CCCCC1)C2 (centres undefined)	i	>57
O=C(COc1ccccc1)Nc1ccc(-c2nnc(-c3ccco3)o2)cc1	·	>25.6
CCOC(=O)c1c(C)n(C)c2ccc(O)c(S(=O)(=O)c3ccccc3)c12	·	10.3*
CCC(=O)N1CCc2cc(S(=O)(=O)NC(CC(C)C)C(=O)N3CCc4ccccc43)ccc21 (centres undefined)	i	>57
Cc1ccnc(N2CCCC(C(=O)Nc3nnc(C)s3)C2)n1 (centres undefined)	i	>57
Cc1cc(C(=O)CSc2nc3ccccc3n2CCC#N)c(C)n1Cc1cccs1	i	·
CN(C(=O)COc1cc(=O)n(C)c2ccccc12)c1ccc(Cl)cc1	i	·
Cc1ccc(-c2nnc(N(C)C(=O)c3ccncc3)s2)cn1	i	>57
COc1ccc(S(=O)(=O)N(CC(N)=O)C2CCCCC2)cc1Cl	i	>57
CC(=O)c1c(N2CCCCC2)nc(=S)n(Cc2ccccc2)c1C	i	·
Cn1c(=O)[nH]c(=O)c2c1nc(CN1CCOCC1)n2Cc1ccc(F)cc1	i	·
COc1cc2c(cc1OC)CN(C(=O)c1cc(S(=O)(=O)N3CCOCC3)ccc1Cl)CC2	i	>57
CN(CC(CC(=O)Nc1nncs1)c1ccccc1)S(=O)(=O)c1ccccc1 (centres undefined)	i	·
CN(C)c1ncc2nc(-c3cccs3)c(=O)n(C3CC3)c2n1	i	·
CCOc1ccc(N=CC2=C(O)CC(C)(C)CC2=O)cc1	i	·
CC(=O)/C(C(=N)N1CCN(C(c2ccccc2)c2ccccc2)CC1)=C(\C)O	i	·
CC1CCN(C(=O)CSc2nc3ccccc3[nH]2)CC1	i	·
COc1ccc(C(=O)Nc2ccc3c(c2)OCO3)cc1OC	i	·
CC(C)=CC(=O)OCC(=O)Nc1nc(C)c(Cl)cc1Cl	i	?
c1ccc(-c2nc(CSc3nnnn3-c3ccccc3)cs2)cc1	i	>57
COc1ccccc1NC(=O)C1CCCN(S(=O)(=O)c2cccc3nsnc23)C1 (centres undefined)	i	·
O=C(Nc1cccc(C(F)(F)F)c1)C1CCCN(c2ncccn2)C1 (centres undefined)	i	>57
CC(C)(C)n1ncc2c(=O)n(CC(=O)Nc3ccc4c(c3)OCCO4)cnc21	i	>57
CCC(C)NC(=O)c1cn(C)c(=O)c2cc(OC)c(OC)cc12 (centres undefined)	i	>57
SMILES	TsaE inh	Bst PK mod
Cc1ccc2nsnc2c1N(S(C)(=O)=O)S(C)(=O)=O	i	>57
Cc1cc2ccccc2c(=O)n1CC(=O)Nc1ccc2c(c1)OCCO2	i	>57
Cc1nc2ccccc2c2oc(C(=O)NCCCN3CCCC3=O)cc12	i	·
COc1ccc2cc(CN(CC3COCCO3)S(=O)(=O)c3ccccc3)c(=O)[nH]c2c1 (centres undefined)	i	>57
CN(C(=O)C12CC3CC(CC(C3)C1)C2)C1CCS(=O)(=O)C1 (centres undefined)	i	·
O=S(=O)(CCCc1ccccc1)c1ncn[nH]1	i	>57
CCC1=C/C(=C\c2ccc3c(c2)OCO3)C(=O)S1	i	>57
CC1(C)Cc2ccccc2-c2nnc(SCc3ccc(C#N)cc3)n21	i	>57
O=C(NC1CCCCC1)n1c(=O)oc2cc(S(=O)(=O)N3CCCCC3)ccc21	i	>57
O=C(CC(NS(=O)(=O)c1ccc(Cl)cc1)c1ccco1)NC1CCCC1 (centres undefined)	i	>57
Cc1nnc(Nc2ccccn2)c2ccccc12	i	·
CCOC(=O)Cc1csc(NC(=O)c2c(-c3ccccc3)noc2C)n1	i	·
O=C(O)c1cc(NC(=O)C2CCCO2)cc(NC(=O)C2CCCO2)c1 (centres undefined)	i	>57
N#Cc1cc2ccccc2nc1SCc1cccnc1	i	>57
O=C(CNS(=O)(=O)c1ccc(Br)s1)N1CCCC1	i	>57
Cc1ccc2c(c1)sc1ncc(NC(=O)c3ccccc3)c(=O)n12	i	>57
O=S(=O)(NC1CC2CCC1C2)c1ccc2c(c1)OCCO2 (centres undefined)	i	>57
CS(=O)(=O)N1CCN(C(=O)Cc2ccccc2)CC1	i	·
CCCSc1nnc(Cn2c(=O)sc3ccccc32)n1C	i	·
O=C(Nc1nc(-c2nc3ccccc3s2)cs1)C1COc2ccccc2O1 (centres undefined)	i	·
OC[C@H](S)CS	i	·
COc1ccc(OC)c(NC(=O)Cn2c(-c3ccc(Cl)cc3)noc2=O)c1	i	>57
Oc1ccccc1OCc1nc2ccccc2s1	i	·
CCc1ccc(NC(=O)CSc2nnc(Cc3cccn3C)n2-c2ccc(F)cc2)cc1	i	·
CCOC(=O)N1CCN(C(=O)Cn2c(C)cc3ccccc3c2=O)CC1	i	>57

6 successive records from above, quoted:
SMILES	TsaE inh	Bst PK mod
O=C(Nc1nc(-c2nc3ccccc3s2)cs1)C1COc2ccccc2O1 (centres undefined)	i	·
OC[C@H](S)CS	i	·
COc1ccc(OC)c(NC(=O)Cn2c(-c3ccc(Cl)cc3)noc2=O)c1	i	>57
Oc1ccccc1OCc1nc2ccccc2s1	i	·
CCc1ccc(NC(=O)CSc2nnc(Cc3cccn3C)n2-c2ccc(F)cc2)cc1	i	·
CCOC(=O)N1CCN(C(=O)Cn2c(C)cc3ccccc3c2=O)CC1	i	>57

Going on with the list.
SMILES	TsaE inh	Bst PK mod
COc1ccc(OC)c(S(=O)(=O)n2cnc3cc(C)c(C)cc32)c1	i	·
CCCSc1nnc(CN2CCOCC2)n1C	i	>57
Cc1cc(-c2csc(NC(=O)c3cc4ccccc4o3)n2)c(C)n1C	i	>57
O=C(c1ccccc1-c1nc(-c2ccc(Cl)cc2)no1)N1CCCC1	i	i
Nc1ccc(Nc2ccccc2N)cc1	i	·
Cc1cc(OCc2nn[nH]n2)c2c(C)c(CC(=O)O)c(=O)oc2c1	i	>57
Cc1cc(=O)n(CCc2ccccc2)c(O)c1C#N	i	>57&>57
COc1ccc(CNC(=O)Cn2cc3c(n2)CCCCC3)cc1	i	·
CN1C=CC=C/C1=C1\SC(=S)N(C2CCCCC2)C1=O	i	·
Cc1cc(C)nc(NS(=O)(=O)c2ccc(NC(=O)Cn3c(=O)oc4ccccc43)cc2)n1	i	·
COc1ccc(CNC(=O)CSc2nnnn2-c2ccc(O)cc2)cc1	i	>57
O=C(O)CCCC(=O)Nc1ccccc1-n1ccnc1	i	>57
O=C(NCC1CCCO1)c1cccs1 (centres undefined)	i	·
CC(C)NC(=O)CCNC(=O)c1ccc(F)cc1	i	>57
COc1ccc(Nc2nc(N)nc(CN3CCN(c4ccccn4)CC3)n2)cc1	i	>11.4
CC(=O)C1=C(O)C(=O)N(Cc2cccnc2)C1c1ccccc1 (centres undefined)	i	>57
Nc1nc2ccc(N3CCOCC3)cc2s1	i	i
COc1ccc(OC)c(-c2cc(C(=O)NCc3ccco3)no2)c1	i	·
CCOC(=O)CSC(C)C(=O)Nc1nnc(C(C)C)s1 (centres undefined)	i	·
O=c1c2cn[nH]c2[nH]c(=S)n1-c1ccccc1F	i	>57
COc1ccc(NC(=O)CC2SC(=NCc3ccccc3OC)NC2=O)cc1 (centres undefined)	i	>57
CCC(=O)c1cc(F)c(N2CCN(S(=O)(=O)c3ccc(C)cc3)CC2)cc1C	i	·
CCn1c(=O)cc(OCC(=O)N(C)C2CCCCC2)c2ccccc21	i	>57
O=C(CC12CC3CC(C1)CC(CC(=O)N1CCCC1)(C3)C2)N1CCCC1	i	·
CC(=O)c1c(N2CCCCC2)nc(=S)n(-c2ccccc2)c1C	i	·
CNC(=O)[C@H](C)/C=C/C(NC(=O)OCc1ccccc1)c1ccc(C(=O)OC)cc1 (some centres undefined)	i	·
CSc1nnc2n(-c3ccc(C)cc3)c(=O)c3c4c(sc3n12)COC(C(C)C)C4 (centres undefined)	i	·
